ugtP null kill: kills S. aureus RN4220 lacking UgtP | S. aureus RN4220 ugtP deletion, OD600 growth, 16 h; some inactives read as strong as hits | growth inhibition, % (test concentration not listed) | hit rate 0.54% among 330,000;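 active means z-score under -3 and OD600 up to 0.15 on both plates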;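 further: plate controls were untreated wells for no effect and antibiotic for full effect; wells of about 80 µL received 100 nL stock; the first replicate is given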
PrP UTR inh: inhibition of PrP 5' UTR reporter expression; cell-based PrP 5' UTR mRNA reporter, plate reader; inhibition, % (concentration not given with the values); hit rate 0.35% among 340,000;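 active means every replicate at 50% or more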;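 further: 0 = median of the neutral control wells; tested in H4 reporter cells; numbers are from one replicate; inactives centre near -14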
Autofluor counter: counter-screen for toxin protease inhibitors: compound fluorescence | compound autofluorescence counterscreen, microsphere flow cytometry; stronger effect = higher value | hit rate 3.1% among 360,000 | fluorescence intensity (no concentration beside the values);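 active means at least 3 SD above the mean of all compounds, about 16000 in these data; inconclusive means too few beads counted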;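 further: 100 nL of 1 mM stock went into each well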
Mtb hypoxia rep: Mtb hypoxia fluorescent reporter inhibition; M. tuberculosis hypoxia-regulated fluorescent reporter, fluorescence; fluorescence inhibition, % (concentration not given with the values); hit rate 0.1% among 300,000; AID 1159583;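 active means 35 to 45% if threefold the growth effect, above 45% if 1.5-fold the growth effect; inactive means the rest, general growth blockers included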;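 further: wells of about 50 µL received 100 nL stock; 0% = vehicle wells and 100% = reference inhibitor wells; whole bacteria with a GFP reporter of the hypoxia response; strong numbers were not always called active; many hits fall short of the cut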
Sa RN4220 lethal: S. aureus RN4220 growth inhibition. hit rate 0.33% among 330,000. AID 1259311. OD600, 16 h. inhibition, % (test concentration not listed);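 active means z-score of -3 or lower and OD600 up to 0.18 on both plates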;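 further: plate controls were untreated cells for no effect and reference antibiotic for full effect; stock transfer was 100 nL into about 80 µL; one replicate is shown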
BJeLR lethal: kills HRASV12-expressing BJeLR cells; inhibition, % (concentration not given with the values); hit rate 0.17% among 300,000; BJeLR (HRASV12) viability, CellTiter-Glo ATP luminescence, 48 h; reference of the scale not given here;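 active means replicate mean above 50%; inconclusive means above 50% but judged a plate artefact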;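 further: 50 nL library stock added to about 25 µL; numbers are from one replicate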
Mtb hypoxia rep growth: recorded beside Mtb hypoxia rep, whose call it bears; growth inhibition, %; measured here: M. tuberculosis growth (absorbance);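 0% = vehicle and 100% = reference antibiotic; read after six days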
* marks the source's active call; other numbers are inactive results; u = inconclusive; x = no result given; & = joins results of further samples.

SMILES	ugtP null kill	PrP UTR inh	Autofluor counter	Mtb hypoxia rep	Mtb hypoxia rep growth	Sa RN4220 lethal	BJeLR lethal
CCOC(=O)CN1C(=O)NC(c2cccc(C(F)(F)F)c2)C(C(=O)OC)C1C (configuration not stated)	4	x	x	3	-11	6.5	x
Oc1cc(Cl)c(Cl)c(Cl)c1	-5	-20	4858	9	11	12	x
CCn1c(=O)cc(OCC(=O)Nc2ccccc2N2CCN(C)CC2)c2ccccc21	-7	1	6321	5	17	-12	-6
Cc1ccccc1OCC(=O)N/N=C/c1cc2ccccc2nc1Cl	x	-30	4007	x	x	x	7
O=C(Nc1ccccc1)Nc1ccno1	-7	-13	3494	95*	13*	1.6	2
COc1cc(CNC(C)c2ccccc2)c(Br)cc1OCC(N)=O (configuration not stated)	1	x	9811	3	2	0.9	2
O=C(COc1ccccc1)NCC1CCCO1 (configuration not stated)	16	-20	6856	x	x	7.8	1
COc1ccc(C(=O)C(CN2CCOCC2)c2ccccc2)cc1F (configuration not stated)	16	-2	3223	10	19	2.0	23
COc1cc(C(=O)NCC(c2ccco2)N2CCCC2)ccc1OCc1c(C)noc1C (configuration not stated)	-4	-9	23986*	6	9	4.5	-27
CC(=O)C1=CN(CC2CCCCC2)CCC1=O	2	-17	4005	-4	5	2.6	x
Cc1cc(C)n(CC2CC(=O)N(c3cc(Cl)cc(Cl)c3)C2=O)n1 (configuration not stated)	-3	-20	2092	10	9	3.1	-7
CCC(C)c1ccc(NC(=S)N2CCCC2)cc1 (configuration not stated)	5	-42	5333	9	4	2.6	x
O=C(C1=C(O)C(=O)N(CC2CCCO2)C1c1cccnc1)c1ccco1 (configuration not stated)	7	-18	3962	18	8	2.0	-8
O=C(O)c1ccc(/C=N/Nc2ccc(Cl)nn2)cc1	x	-33	5343	x	x	x	5
O=C(CSCc1ccc(Cl)cc1)Nc1ccccc1O	-5	-29	2172	65*	39*	2.0	12
CC(C)n1c(COc2ccccc2)nc2ccccc21	5	-13	3726	-2	10	1.8	7
CN(C)S(=O)(=O)c1cccc(C(=O)OCC(=O)Nc2ccccc2OC(F)F)c1	11	-5	3007	x	x	-0.5	4
CCCc1cc(=O)oc2c3c(cc(OCC(=O)NCC4CCC(C(=O)O)CC4)c12)OC(C)(C)CC3 (configuration not stated)	-2	-9	4226	x	x	4.5	-9
Cc1cc(NC(=O)CSCC(=O)OCC(=O)Nc2cc(C)c(C)cc2[N+](=O)[O-])no1	5	-21	u	8	-4	-0.6	1
Nc1nonc1-n1nnc(C(=O)NN=Cc2ccccc2F)c1-c1cccs1	0	x	x	-6	0	4.6	x
COCCSc1nnc(NS(=O)(=O)c2ccc(C)cc2)s1	9	-6	3574	-12	3	8.5	-5
OC1(c2cccc(C(F)(F)F)c2)CCN(c2ccc(-c3ccccc3)nn2)CC1	10	-137	9028	-1	2	3.1	x
CCOC(=O)c1sc(=NC(=O)c2ccc(OC)c(OC)c2)n(C)c1C	-6	-75	7957	10	3	4.9	1
Cc1cccc(Nc2ccccc2C(=O)OCC(=O)N2CCOCC2)c1C	3	-14	10684	7	6	1.5	-2
COC(=O)c1ccc2c(c1)nc(C)n2CCO	4	-12	3619	x	x	0.8	17
CCc1ccc(N(C(=O)c2csnn2)C(C(=O)NC(C)(C)C)c2ccccn2)cc1 (configuration not stated)	0	-13	4401	10	4	-1.8	-2
C=CCOc1c(CNc2ccc(C(=O)O)cc2)cccc1OC	10	-30	2150	7	-11	1.6	1
O=C(Nc1ccc(F)c(Cl)c1)C1CC(=O)N(Cc2ccco2)C1 (configuration not stated)	-2	-10	3863	2	2	0.8	x
CCOc1ccc(C(C)=O)cc1Cn1ccsc1=N	2	-4	4054	10	7	1.3	-3
O=c1cc(CO)occ1OCc1cccc(C(F)(F)F)c1	0	-39	5962	14	17	4.5	2
CCOc1ccccc1NC1=NC2CS(=O)(=O)CC2S1 (configuration not stated)	12	-11	5650	3	6	6.9	-6
COc1ccc(-c2c(-c3ccsc3)oc3ccc(N4CCOCC4)cc23)cn1	11	-17	3850	14	21	-4.8	9
COc1ccc(CNC(=O)CN(C)Cc2ccc(C(C)(C)C)cc2)cc1	20	-18	2863	5	8	2.4	-1
Cc1ccc(Cn2nc(C)c(C(=O)NCC(c3ccc(F)cc3)N3CCOCC3)c2Cl)cc1 (configuration not stated)	4	-11	5611	4	-10	-2.3	x
COc1ccccc1/C=C/C=Nn1c(-c2ccc(Cl)cc2Cl)n[nH]c1=S	-1	x	x	2	1	8.9	x
COc1ccc(C(=O)c2c(-c3ccc(OC)cc3)oc3ccc(-c4ccc(OC)nc4)cc23)cc1	0	-3	3675	5	1	4.3	-3

Arranged by heavy-atom count (smallest number first): part of the list above.
SMILES	ugtP null kill	PrP UTR inh	Autofluor counter	Mtb hypoxia rep	Mtb hypoxia rep growth	Sa RN4220 lethal	BJeLR lethal
CCOc1ccccc1NC1=NC2CS(=O)(=O)CC2S1 (configuration not stated)	12	-11	5650	3	6	6.9	-6
O=C(Nc1ccc(F)c(Cl)c1)C1CC(=O)N(Cc2ccco2)C1 (configuration not stated)	-2	-10	3863	2	2	0.8	x
CCc1ccc(N(C(=O)c2csnn2)C(C(=O)NC(C)(C)C)c2ccccn2)cc1 (configuration not stated)	0	-13	4401	10	4	-1.8	-2

Other compounds
SMILES	ugtP null kill	PrP UTR inh	Autofluor counter	Mtb hypoxia rep	Mtb hypoxia rep growth	Sa RN4220 lethal	BJeLR lethal
O=C1CCCC(=O)C1=Cc1c[nH]c2ccccc12	6	-15	4955	x	x	-0.7	8
COc1ccc(CNc2nc3ccccc3n2C(C)C)c(O)c1	16	-37	3042	8	11	-6.6	6
C[C@H]1CN([C@@H](C)CO)C(=O)c2cccc(NC(=O)c3nc4ccccc4s3)c2O[C@H]1CN(C)C(=O)Nc1ccc(F)cc1	-16	-6	3717	19	29	-23	x
CC1(C)CN=C(N(Cc2ccccc2)C(=O)Nc2ccccc2)S1	13	-15	2442	-4	1	-3.1	5
COc1ccc(NC(=S)NCc2ccc(F)cc2)cc1	9	-19	3665	8	6	2.9	-1
CC12CCC(=O)N1C(C(=O)N1CCN(c3ccccc3)CC1)CS2 (configuration not stated)	2	-30	5225	0	-1	4.5	10
Cc1ccc(-n2c(SCC(=O)Nc3nccs3)nc3c(c2=O)SCC3)cc1	14	-28	8373	5	14	6.3	1
COc1cc(C(=O)O)ccc1OCc1c(C)noc1C	-10	-48	21283*	1	13	5.8	5
CCOC(=O)c1c(O)c2c([nH]c1=O)CCCC2	-2	-8	5942	-3	4	-1.5	2
O=C(CN1CCSC1=O)Nc1ccc(N2CCOCC2)cc1	3	-16	5735	6	-8	-0.9	x
OCCNc1nc2ccccc2n1-c1ncnc2sc3c(c12)CCC3	2	-16	4406	x	x	3.9	2
O=Cc1cn[nH]c1-c1ccccc1	7	-11	4276	19	5	6.4	-2
CCN(CC)c1ccc(C2C(C(=O)Nc3ccccn3)=C(C)NC3=C2C(=O)CC(C)(C)C3)cc1 (configuration not stated)	1	8	4574	-5	9	0.3	-3
NS(=O)(=O)c1cc(C(=O)Nc2ccc3c(c2)CCC3)ccc1Cl	-5	-42	3070	5	2	3.6	-1
CC(C)(C)c1ccc(OCC(=O)NCC(c2cccs2)N2CCOCC2)cc1 (configuration not stated)	-5	-18	5897	11	4	5.6	8
CN(C)S(=O)(=O)c1ccc(N2CCCC2)c(C(=O)NCC2CCCO2)c1 (configuration not stated)	4	-15	6859	4	10	0.5	4
Cc1nn(-c2ccccc2)c2c1C(c1ccncc1)C(C#N)=C(N)O2 (configuration not stated)	-5	-11	2425	x	x	2.1	-3
CCN1CCCCC(=NO)C(=NO)CCCC1	5	x	x	11	10	2.9	x
CSc1ncc(C(=O)Nc2cccnc2)c(C(F)(F)F)n1	9	-6	5483	0	5	0.4	2
Cc1cc(SCC(=O)N/N=C/c2ccc(C(=O)O)cc2)nc2ccccc12	x	-3	3918	x	x	x	-4
Cc1ccc(C(C)NC(=O)COC(=O)C2=COCCO2)cc1C (configuration not stated)	2	x	u	4	10	2.7	x
CCC1=C2CCC3C(=O)N(c4ccccc4)C(=O)C3C2[C@@]2(C)C(=NCC(=O)OC)OC(=O)N2C1=O (some centres not stated)	-2	x	x	18	4	9.9	x
Cc1cccnc1NC(=O)C1CCC1	6	-13	x	8	-2	-0.7	6
CCNC(=O)c1c(NC(=O)c2cc(-c3cc(C)ccc3O)n[nH]2)sc2c1CCCC2	-19	12	2460	-1	7	-7.7	-6

For convenience, part of the list above:
SMILES	ugtP null kill	PrP UTR inh	Autofluor counter	Mtb hypoxia rep	Mtb hypoxia rep growth	Sa RN4220 lethal	BJeLR lethal
CCN(CC)c1ccc(C2C(C(=O)Nc3ccccn3)=C(C)NC3=C2C(=O)CC(C)(C)C3)cc1 (configuration not stated)	1	8	4574	-5	9	0.3	-3
NS(=O)(=O)c1cc(C(=O)Nc2ccc3c(c2)CCC3)ccc1Cl	-5	-42	3070	5	2	3.6	-1

(list continues)
SMILES	ugtP null kill	PrP UTR inh	Autofluor counter	Mtb hypoxia rep	Mtb hypoxia rep growth	Sa RN4220 lethal	BJeLR lethal
O=C1CC(N2CCN(Cc3ccccc3)CC2)C(=O)N1 (configuration not stated)	8	-16	2595	-15	-10	2.5	-1
O=C(Nc1ccc(-c2cnco2)cc1)c1ccc(Cl)cc1	-2	x	3609	-5	0	5.9	-6
COc1ccc(S(=O)(=O)Nc2nnc(Cc3ccc(OC)c(OC)c3)s2)cc1	2	-18	5052	2	2	5.1	1
Cc1cc(C=NO)c(C)n1-c1cccc(Cl)c1	7	x	x	8	-9	0.3	x
O=C(Nc1ccccc1N1CCOCC1)c1cc(-c2ccco2)nc2ccccc12	-5	-9	3058	9	7	-13	8
O=C(COC(=O)c1cc[n+]([O-])cc1)Nc1ccc(F)c([N+](=O)[O-])c1	0	-11	3095	-4	11	-2.7	-1
CCOC(=O)C1CCN(C(=O)c2cc3c(s2)-c2ccccc2OC3)CC1	3	-9	7174	x	x	4.9	-7
O=C(NCc1ccco1)c1nc2ccccc2s1	12	-26	10278	x	x	10	3
CC1(C(=O)N2CC3(CC(c4ccccc4)=NO3)C[C@H]2C(=O)NCC(N)=O)CC1 (some centres not stated)	x	19	3790	x	x	x	-5
Cn1nc(C(F)(F)F)c(-c2ccccc2)c1NC(=O)c1ccco1	-10	-14	4245	-4	-3	-2.5	0
CNC(=O)N(c1ccccc1)c1ccccc1	4	-4	3013	12	6	4.8	8
CCn1nnc(NC(=O)c2cccc(-c3cc4ccccc4oc3=O)c2)n1	12	-23	8162	6	4	9.2	2
CC(=O)C1CCC2C3CCC4=CC(=O)CC[C@]4(C)[C@@]3(F)C(O)C[C@]12C (some centres not stated)	21	-28	3059	3	-3	5.7	8
CC1(C)CC(=O)C(C=NCCc2ccc(O)cc2)=C(O)C1	7	-15	5921	1	0	2.5	-2
CN(C)CCn1c(=O)n(-c2cccc(Cl)c2)c(=O)c2c3c(sc21)CCCCC3	5	-31	5789	-4	-4	-2.7	2
O=C(CSc1nnc(CNC(=O)c2c(F)cccc2F)o1)NCc1ccco1	-2	-1	4294	8	8	0.1	1
Cc1ccnc(NS(=O)(=O)c2cccc([N+](=O)[O-])c2)c1	-7	-6	4615	2	-4	3.1	-14
COCCCn1c(SCC(=O)c2ccccc2)nc2ccccc2c1=O	11	-8	4230	-3	20	3.7	-6
O=S(=O)(NC1CC(NS(=O)(=O)OCC(Cl)(Cl)Cl)C2CCCCC12)OCC(Cl)(Cl)Cl (configuration not stated)	95*	-18	3089	5&1	5&6	101*	30
Nc1nonc1-n1nnc(C(=O)N/N=C/c2ccoc2)c1-c1ccccc1	x	5	3570	x	x	x	-3
CC(NC(=O)COC(=O)C1=NN(c2ccccc2)C(=O)CC1)c1ccccc1 (configuration not stated)	4	-25	4096	0	10	0.4	x
O=C(O)c1ccc(N2C(=O)C3C4c5ccccc5C(Br)(c5ccccc54)C3C2=O)cc1 (configuration not stated)	-2	-17	4237	-6	11	2.1	-5
N#CC1=C(SCc2ccccc2)NC(=O)CC1c1cccc(O)c1 (configuration not stated)	9	-28	9050	6	-2	3.7	3
COc1cccc2c(NN=Cc3ccccc3)cc(C)nc12	4	x	x	-1	1	3.2	x
COc1ccc(C(CNc2ncnc3sc(C)c(C)c23)N(C)C)cc1 (configuration not stated)	6	-7	4171	0	5	5.1	-10

2 compounds drawn at random from the list so far:
SMILES	ugtP null kill	PrP UTR inh	Autofluor counter	Mtb hypoxia rep	Mtb hypoxia rep growth	Sa RN4220 lethal	BJeLR lethal
CC1(C)CC(=O)C(C=NCCc2ccc(O)cc2)=C(O)C1	7	-15	5921	1	0	2.5	-2
Cc1ccnc(NS(=O)(=O)c2cccc([N+](=O)[O-])c2)c1	-7	-6	4615	2	-4	3.1	-14

Screening results (PubChem)
